Screening data: PubChem BioAssay, National Center for Advancing Translational Sciences (NCATS)
Vaccinia mCherry = qHTS for Stage-Specific Inhibitors of Vaccinia Orthopoxvirus: mCherry Reporter Primary qHTS. Vaccinia virus mCherry reporter infection, fluorescence; about a quarter of the inactives have no number. 310,000 compounds, 0.63% hits. AID 720579, 2013. Potency, µM (doses to about 36.5 µM), inactives show at the top dose activity change, negative = inhibition, hits mostly inhibitors; active = well fitted inhibition curve with a large enough effect; inconclusive = small, poorly fitted or top-dose-only effect; inactive = no such curve, though single readings can be large or run the other way; tested in A549 cells; note: nearly all actives have a fitted effect of over 35% in size; inactives centre near -10
Vaccinia Venus = qHTS for Stage-Specific Inhibitors of Vaccinia Orthopoxvirus: Venus Reporter Primary qHTS. 330,000 compounds, 0.46% hits. Potency, µM (doses to about 36.5 µM), for inactives: at the highest dose activity change, negative = inhibition, hits mostly inhibitors. Vaccinia virus Venus reporter expression, fluorescence; active means well fitted inhibition curve with a large enough effect; inconclusive means small, poorly fitted or top-dose-only effect; inactive means no such curve, though single readings can be large or run the other way; tested in A549 cells; note: nearly all actives have a fitted effect of over 30% in size; inactives centre near -10
An asterisk follows results filed as active; i = inactive; ? = inconclusive; · = no result given; [ ] = another dose, or the depositor's remark. % is set by controls: 0 for no effect and ±100 for the full control effect; potency is the fitted concentration of half-maximal effect.

SMILES	Vaccinia mCherry	Vaccinia Venus
CCCCNC(=O)c1cn(C)c2ccc(S(=O)(=O)N3CC(C)CC(C)C3)cc2c1=O (stereo not given)	i[7.34 µM]	-18%[7.34 µM]
COc1cc(NC(=O)CN2C(=O)C(c3ccc(C)cc3)=NC23CCCCCC3)cc(OC)c1	-21%	-11%
Cc1c(C(=O)NCCSc2ccc(Cl)cc2)cccc1[N+](=O)[O-]	-26%	-16%
S=C(NCc1cccs1)Nc1cccc2ccccc12	-10%	-10%
Cc1ccc(N(C(=O)Cn2nnc(-c3ccccc3F)n2)C(C(=O)NC2CCCC2)c2ccncc2)cc1 (stereo not given)	1%	-2%
C=Cc1ccc(Cn2c(C)c(CNCCc3ccc(OCC)cc3)c(C(=O)O)c2C)cc1	-9%	-11%
C#CCOCCOCCOCCNc1nc(N2CCN(C(=O)[C@H](CCC(=O)O)n3cc(C(N)Cc4ccc(O)cc4)nn3)CC2)nc(N2CCN(C(=O)[C@H](CCC(=O)O)n3cc(C(N)[C@H](C)CC)nn3)CC2)n1 (stereo not given in full)	-2%	-2%
CCCCCC(=O)Nc1ccc(NC(=O)c2cc3ccccc3o2)c(OC)c1	?	?
O=C(CCNS(=O)(=O)c1ccccc1C(F)(F)F)NC1CCCCCC1	-22%	-15%
COc1ccc(Cl)cc1NC(=O)CN1Cc2ccccc2C1=O	-16%	-16%
CC(Sc1nnc(C2CC2)n1C1CC1)C(=O)NC1(C#N)CCCCC1 (stereo not given)	-23%	-10%
O=C(CN1CCOCC1)Nc1nc2cc([N+](=O)[O-])ccc2s1	-15%	-20%
O=C1[C@H]2[C@@H](c3ccc(C(F)(F)F)cc3)N[C@]3(CCCN(Cc4ccco4)C3=O)[C@H]2C(=O)N1Cc1ccccc1	-6%	-15%
Cc1nc2cc(Nc3ccncc3)ccc2s1	-8%	4%
O=C(CCN1C(=O)c2cccc3cccc(c23)C1=O)NC1CCS(=O)(=O)C1 (stereo not given)	-23%	-6%
COc1ccc(-c2cc(C(F)(F)F)nc(SCC(=O)NCCc3ccccc3)n2)cc1OC	-9%	-5%
COC(=O)/C=C1/S/C(=N/NC(=O)c2ccc(Cl)cc2Cl)NC1=O	i	2%
Cc1cccc(NC(=S)NCC(c2cccnc2)N2CCOCC2)c1C (stereo not given)	i	-7%
Cc1ccc(-n2cnc3ncnc(-c4ccccc4)c32)cc1	i	-18%
OC(c1cc(Cl)cc(Cl)c1)c1ncc(-c2ccccc2F)[nH]1 (stereo not given)	-17%	-25%
COc1ccc(CCNC(=O)c2c(C)cc(=O)oc2C)cc1OC	-12%	-14%
Cc1ccc(N2C(=O)C(NC(=O)c3ccccc3)(C(F)(F)F)C3=C2CC(C)(C)CC3=O)cc1 (stereo not given)	-11%	-5%
CCN(CC)CC(=O)Nc1cccc(S(=O)(=O)N2CCCC2)c1	-2%	-13%
O=C(Cn1cc2c(n1)CCCC2)NCCCN1CCN(Cc2ccccc2)CC1	-12%	-4%
COc1cc(OC)cc(-c2c(-c3ccc(F)cc3)c3cc(-c4ccc(SC)cc4)ccc3n2C)c1	i	-9%
CCOC(=O)CCc1n[nH]c(=O)[nH]c1=O	·	-5%
CCc1ccccc1OCCSc1nnc(-c2cc(OC)c(OC)c(OC)c2)o1	-7%	2%
COC(=O)C1=CN(CCOC23CC4CC(CC(C4)C2)C3)C=C(C(=O)OC)C1c1ccsc1	-20%	?
CS(=O)(=O)n1nc(NCc2cccs2)nc1NCc1cccs1	i	-16%
CC(=O)COc1ccc2c(C)c(C)c(=O)oc2c1	·	-2%

Compounds listed so far with an aryl thioether with sulfur outside any ring, in the order listed:
SMILES	Vaccinia mCherry	Vaccinia Venus
Cc1c(C(=O)NCCSc2ccc(Cl)cc2)cccc1[N+](=O)[O-]	-26%	-16%
CC(Sc1nnc(C2CC2)n1C1CC1)C(=O)NC1(C#N)CCCCC1 (stereo not given)	-23%	-10%
COc1ccc(-c2cc(C(F)(F)F)nc(SCC(=O)NCCc3ccccc3)n2)cc1OC	-9%	-5%
COc1cc(OC)cc(-c2c(-c3ccc(F)cc3)c3cc(-c4ccc(SC)cc4)ccc3n2C)c1	i	-9%
CCc1ccccc1OCCSc1nnc(-c2cc(OC)c(OC)c(OC)c2)o1	-7%	2%

Remaining list, next part
SMILES	Vaccinia mCherry	Vaccinia Venus
CC(C)Cn1c(N)c(C(=O)COC(=O)C2Cc3ccccc3CN2S(C)(=O)=O)c(=O)n(C)c1=O (stereo not given)	-10%	-20%
O=C(c1ccco1)n1nc(-c2ccccc2)nc1NCc1ccc(F)cc1	-11%	-8%
COCOCCn1cc(CN2CCS(=O)(=O)N(Cc3ccc(-c4ccncc4)cc3)C(C(C)C)C2=O)nn1 (stereo not given)	i	-8%
COc1cc(OC)c(NC(=O)N2CC=C(c3c[nH]c4ccccc34)CC2)cc1Cl	-21%	-10%
Cc1ccc(C2Nc3ccccc3NC3=C2C(=O)OC(C)C3)cc1 (stereo not given)	-12%	-12%
C#CCNc1cc(C)nc2ncnn12	-8%	-3%
COc1cccc(NC(=O)C(C)N2C(=O)c3ccccc3S2(=O)=O)c1 (stereo not given)	-1%	-16%
COc1ccc(/C=N/Nc2nncc3ccccc23)c(OC)c1	-23%	0%
Cc1ccc(C(CCNC(C)c2cccs2)c2ccco2)cc1 (stereo not given)	-22%	-13%
O=C1CNC(=O)/C1=C\N1CCN(C(c2ccccc2)c2ccccc2)CC1	·	-20%
Cn1c(=O)c2c(ncn2CC(=O)Nc2cccc(C(F)(F)F)c2)n(C)c1=O	-15%	-8%
CCOc1nc(NC2CCCC2)nc(N2CCC(C)CC2)n1	-30%	-26%
COc1ccc(NC(=O)Nc2cccnc2)cc1	0%	3%
COc1ccc(OC)c(NC(=O)CN(c2ccc(C)cc2)S(=O)(=O)c2c(C)n[nH]c2C)c1	-18%	-24%
COc1cccc(NC(=O)Nc2ccc3nc(C)c(C)nc3c2)c1	i	-16%

Rewritten with two lines to a compound: entries from further up
The line under a structure holds: Vaccinia mCherry	Vaccinia Venus
> S=C(NCc1cccs1)Nc1cccc2ccccc12
→ -10%	-10%
> Cc1ccc(N(C(=O)Cn2nnc(-c3ccccc3F)n2)C(C(=O)NC2CCCC2)c2ccncc2)cc1 (stereo not given)
→ 1%	-2%
> C=Cc1ccc(Cn2c(C)c(CNCCc3ccc(OCC)cc3)c(C(=O)O)c2C)cc1
→ -9%	-11%
> C#CCOCCOCCOCCNc1nc(N2CCN(C(=O)[C@H](CCC(=O)O)n3cc(C(N)Cc4ccc(O)cc4)nn3)CC2)nc(N2CCN(C(=O)[C@H](CCC(=O)O)n3cc(C(N)[C@H](C)CC)nn3)CC2)n1 (stereo not given in full)
→ -2%	-2%
> CCCCCC(=O)Nc1ccc(NC(=O)c2cc3ccccc3o2)c(OC)c1
→ ?	?
> O=C(CCNS(=O)(=O)c1ccccc1C(F)(F)F)NC1CCCCCC1
→ -22%	-15%

Following part:
SMILES	Vaccinia mCherry	Vaccinia Venus
COc1cc(OC)c(NC(=O)CN2C(=O)CCn3nc(-c4cccn4C)cc32)cc1Cl	-17%	-11%
CCOc1ccc(-c2nnc(SCC(=O)Nc3cccc(C#N)c3)o2)cc1	i	-7%
O=C(c1ccccc1)N1CCN(CCc2ccncc2)CC1	-8%	-8%
Cc1cccc(C(=O)NC(=S)Nc2ccc(Cc3ccncc3)cc2)c1	-17%	?
Cc1ccc(S(=O)(=O)NNC(=O)C(=O)NNc2ccccn2)cc1	·	-26%
CCN(CC)CCOC(=O)/C=C/c1ccccc1OC	-17%	-4%
CCOC(=O)[C@]12CCC=C1N(Cc1cccc3ccccc13)C(=O)[C@H](CC(=O)NCc1ccccc1)C2	-25%	-12%
NC(=S)Nc1ccc2cc[nH]c2c1	?	-13%
CCC(C)c1ccc(NC(=O)COc2c(F)c(F)c(C(F)(F)F)c(F)c2F)cc1 (stereo not given)	i	-14%
Cc1cc(Br)cc2c1NC(=O)C2(c1c(C)n(C)n(-c2ccccc2)c1=O)c1c(C)n(C)n(-c2ccccc2)c1=O	-16%	-6%
O=C(c1ccsc1)N1CCCC(N2CCN(c3cccc(Cl)c3)CC2)C1 (stereo not given)	?	-14%
CCCc1cc(C(=O)NNC(=S)NCC)c2ccccc2n1	-7%	-11%
Cc1ccc(CC(=O)Nc2c(C(=O)N3CCN(c4ccccc4)CC3)oc3ccccc23)cc1	-25%	-25%
O=C(Cc1cccc2ccccc12)N/N=C1\CCCc2ccccc21	-25%	-24%
COc1ccc(OC)c(C2C(C(=O)c3sc(C)nc3C)=C(O)C(=O)N2CCN2CCOCC2)c1 (stereo not given)	·	-16%
O=c1cc(-c2ccccc2)nc(SCc2nc(-c3cccc(C(F)(F)F)c3)no2)[nH]1	i	-7%
CCCn1c(SCC(=O)Nc2nonc2C)nnc1-c1ccoc1C	i	-12%
Cc1ccc(CN2c3ccccc3S(=O)(=O)c3ccccc32)cc1	0%	5%
CSc1nc2ccc(NC(=O)C3=NNC(=O)CC3)cc2s1	?	-15%
c1ccc(CNc2ccc3c(c2)ncn3C2CCCCC2)nc1	-4%	2%
COc1ccc(C2/C=C\CN(S(=O)(=O)c3ccc(C)cc3)CC(=O)N2Cc2ccc(F)cc2)cc1 (stereo not given)	-6%	-21%
O=C(c1ccc(Cl)cc1)C1CCCN(Cc2ccc3ncccc3c2)C1 (stereo not given)	i	-23%
CCC(=O)NC(=S)Nc1ccccc1F	-13%	-11%
COC(=O)CSc1nc2ccc(NC(=O)c3ccccc3C(=O)N3CCOCC3)cc2s1	-13%	-3%
Cc1ccccc1CN1N=C(/C=C/c2ccccc2)CCC1=O	-16%	-12%
COc1ccc(C(=O)N/C(=C\c2ccc(Cl)cc2)C(=O)NCCN2CCOCC2)cc1	i	-8%
COc1ccc(NS(=O)(=O)c2cc(NC(=O)c3nc4nc(C)cc(C)n4n3)ccc2C)cc1	-1%	-15%
Cc1ccc(C)c(N2CCN(C(=O)C3CCCN(S(=O)(=O)c4c(C)[nH]c(=O)[nH]c4=O)C3)CC2)c1 (stereo not given)	·	10%
C=CCSc1nc(-c2ccc(OC)cc2)c(C#N)c(=O)n1CC=C	-21%	-16%
COc1ccc(NC(=O)NCc2ccco2)cc1OC	-6%	-2%
Clc1cccc[n+]1CCc1ccccc1	-12%	-8%
COc1ncnc2c1NC1=C(S2)C(=NCCC(=O)O)CC(C)(C)C1	·	38%[activator]
CCCOc1ccc(/C=C/C(=O)Nc2sc3c(c2C(=O)OCC)CCC(C)C3)cc1OC (stereo not given)	-1%	12%
COc1ccccc1CNC(=O)CN1C(=O)NC(c2ccccc2)(c2ccc(C)c(C)c2)C1=O (stereo not given)	?	?
COc1ccc(S(=O)(=O)NCC(=O)N(CC2CCCO2)C(C(=O)NC2CCCC2)C(C)C)cc1 (stereo not given)	-14%	-3%
COc1ccc(-n2nc(C(=O)NCC(=O)NCc3ccc(F)cc3)c3ccccc3c2=O)c(OC)c1	i	-9%
CC(C)n1nc(C(=O)NNC(=O)c2ccncc2)c2ccccc2c1=O	i	-15%
Cc1ccc(/C=C2/SC(=O)N(CC(=O)N3CCOCC3)C2=O)s1	i	-7%
CCc1noc(C)c1C(=O)NNC(=O)c1cc(OC)c(OC)c(OC)c1	-14%	3%
CC(=O)Nc1ccc(Nc2nc(C)nc3c2nnn3Cc2ccccc2Cl)cc1	?	-24%
O=C(CCC(=O)N(CC(=O)NC1CCCCC1)Cc1ccccc1)Nc1ccccn1	i	-5%
Cc1ccc(S(=O)(=O)c2cn(Cc3cccc(F)c3)c3cc(N4CCCC4)c(F)cc3c2=O)cc1	-12%	0%
CCOc1ccc(NS(=O)(=O)c2ccc(NC(=S)NC(=O)C(C)C)cc2)cc1	-25%	?
O=C(CSc1ccc(-c2cccnc2)nn1)Nc1ccccc1C(F)(F)F	-16%	-20%
COc1cccc(C(O)c2ncc(-c3cccc4ccccc34)[nH]2)c1 (stereo not given)	-11%	-6%
COC(=O)c1cc(-c2ccc(Cl)cc2)n(-c2ccc(S(N)(=O)=O)cc2)n1	i	-9%
CCOC(=O)CCCCNC(=O)Nc1ccccc1	i	-3%
CC(C)(C)c1ccc(S(=O)(=O)NNC(=O)C2CCN(Cc3cccc(F)c3)CC2)cc1	-19%	-16%
COC(=O)C1=NN(c2ccc(Cl)cc2)C2C(=O)N(c3ccccc3OC)C(=O)C12 (stereo not given)	-13%	-1%
COc1ccc(CCNS(=O)(=O)c2c(C)nc3sc(C)cn3c2=O)cc1OC	-9%	-6%
CN1CCN(CCCNc2c(C=O)c(=O)[nH]c3ccccc23)CC1	-1%	-12%
Cc1cccc(C)c1-n1nnnc1C(c1cccc2ccccc12)N1CCN(C/C=C/c2ccccc2)CC1 (stereo not given)	-5%	-14%
COC(=O)CN1C(=S)N(c2ccc(OC)cc2)C(=O)/C1=C/c1cccs1	-1%	-5%
O=C(NCc1ccco1)C(c1ccncc1)N(C(=O)Cn1nnc2ccccc21)c1ccccc1F (stereo not given)	4%	4%
CCCC(=O)N1CCC1(C)C(=O)Nc1ccc2nc(C)ccc2c1 (stereo not given)	1%	9%
O=S1(=O)CCS(=O)(=O)C1c1ccccc1	11µM*	?
COC(=O)c1ccc2c(c1)N(CC(=O)Nc1cccc(C(F)(F)F)c1)C(=O)c1ccccc1S2	-8%	0%
CC1(C)S/C(=N/N=C/c2ccco2)NC1=O	-13%	-9%
COc1ccc(-c2noc(CN(C)C(=O)CCCN3C(=O)[C@H]4CC=CC[C@H]4C3=O)n2)cc1	-6%	-10%
O=S(=O)(NCCc1csc2nc(-c3ccc(F)cc3)nn12)c1ccc2c(c1)OCCO2	-13%	-13%
O=C(NC1CCCC1)C(c1ccc(F)cc1)N(Cc1ccc(F)cc1)C(=O)CCl (stereo not given)	-16%	-11%
O=C1NC(c2cccs2)C(C(=O)c2ccccc2)C(O)(C(F)(F)F)N1 (stereo not given)	-1%	-10%
